StopGo reporter = lowers the luciferase signal of an FMDV 2A StopGo reporter. Potency, µM (series often up to 57.9 µM), without a hit: top-dose signal change, negative = less light. AID 1159524. 1.2% of 410,000 active. human cells with a luciferase reporter of 2A StopGo recoding; control for the full effect not named in the record; active = well fitted falling curve with a large enough effect; inconclusive = small, poorly fitted or top-dose-only effect; inactive = no such curve, though single readings can be large or run the other way; tested in HEK293T cells; note: nearly all actives have a fitted effect of over 45% in size; luciferase light after 4 h
RE007 growth inh = less growth of the S. pombe RE007 Vpr strain; S. pombe RE007 Vpr strain, BacTiter-Glo ATP luminescence, 24 h; control for the full effect not named in the record; Potency, µM (titrated, usually from 92.2 µM), without a hit: top-dose activity change, negative = less growth; 0.21% of 360,000 active; AID 651644; active = well fitted falling curve with a large enough effect; inconclusive = small, poorly fitted or top-dose-only effect; inactive = no such curve, though single readings can be large or run the other way;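 note: nearly all actives have a fitted effect of over 50% in size; the assay follows cell death caused by Vpr and the record does not say whether a fall means rescue or toxicity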
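Fission yeast strain RE007, carrying one chromosomally integrated HIV-1 vpr copy, was seeded at OD 0.01 in PMG+AL medium with 23 nL pinned compound. After 24 h at 30 °C and 99% humidity, viability was read by BacTiter-Glo luminescence.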
* = called active by the depositor; u = inconclusive; [ ] = dose if it differs, or a comment. % is set by controls: 0 for no effect and ±100 for the full control effect; potency is the fitted concentration of half-maximal effect.

SMILES	StopGo reporter	RE007 growth inh
CCCS(=O)(=O)NC(=O)C1(C)CCN(C(=O)c2cc3ccccc3s2)C1 (stereo not drawn)	-24%	3%
CCc1nc2ccc(C(=O)N(C)CCCN(C)C)cn2c1N(C)C(=O)C1CCCCC1	-19%	6%
COc1c(C)cc(C(O)c2ncc(-c3ccccc3Cl)[nH]2)cc1C (stereo not drawn)	23%	-22%
O=c1c2c([nH]n1-c1ccccc1)C[C@@H](C1CCCCC1)O[C@H]2c1ccc(F)cc1	33%[activator]	47%
N#Cc1nnn2c1nc(N)c1c(Cl)cccc12	-11%	4%[18.4 µM]
C[C@@H](c1ccccc1)N1C[C@H](COCc2ccccc2)Oc2cc(N3CC[C@@H](N(C)C)C3)ccc2S1(=O)=O	8%	-4%
COc1cc(O)c(C=NN2C(=O)CSC2=S)c(OC)c1	-3%	8%
O=C(Cc1cccc(NC(=O)C2CCN(C(=O)C3CC3)CC2)c1)Nc1cccc(C(=O)N2CCOCC2)c1	-16%	2%
CCN(C)C1CN(Cc2cn(CCCOC)nn2)S(=O)(=O)C1 (stereo not drawn)	-14%	8%
C[C@H](CO)NC(=O)c1[nH]cnc1C(=O)Nc1cccc(Cl)c1	-7%	-20%

3 compounds picked at random from those above:
SMILES	StopGo reporter	RE007 growth inh
CCCS(=O)(=O)NC(=O)C1(C)CCN(C(=O)c2cc3ccccc3s2)C1 (stereo not drawn)	-24%	3%
O=C(Cc1cccc(NC(=O)C2CCN(C(=O)C3CC3)CC2)c1)Nc1cccc(C(=O)N2CCOCC2)c1	-16%	2%
C[C@@H](c1ccccc1)N1C[C@H](COCc2ccccc2)Oc2cc(N3CC[C@@H](N(C)C)C3)ccc2S1(=O)=O	8%	-4%

Next part:
SMILES	StopGo reporter	RE007 growth inh
Cc1ccc(C)c(OCC(=O)N/N=C/c2ccc(N3CCOCC3)cc2)c1	u	1%
O=C1c2ccccc2C(c2nnnn2Cc2ccccc2)N1CCCN1CCOCC1 (stereo not drawn)	-11%	-24%
CC1CN(S(=O)(=O)c2ccc(C(=O)Nc3ccccc3F)cc2)CC(C)O1 (stereo not drawn)	u	-1%
CC1(C(=O)NS(=O)(=O)c2cccc(Cl)c2)CCN1C(=O)CC1CCCC1 (stereo not drawn)	-10%	-4%
CCOC(=O)[C@]12Cc3cc(Cl)ccc3[C@H]1N(C)C(=O)c1ccccc12	u	6%
OCC[C@@H]1C[C@H](O)[C@@H](O)[C@@]2(CCCO2)O1	-13%	4%
C[C@@H]1CN([C@H](C)CO)C(=O)c2c(c3ccccc3n2C)-c2ccccc2CO[C@H]1CN(C)C(=O)c1cc(Cl)cc(Cl)c1	-22%	-15%
CN(C)CCNC(=O)C(=O)NCC1OCCN1S(=O)(=O)c1ccc(F)cc1 (stereo not drawn)	-17%	5%
O=C1CC2(CCCC2)Oc2ccccc21	-4%	10%
CC(C)c1ccc(NC(=O)Nc2nc(CN)cs2)cc1	-3%	32%
CCc1nc2ccc(C(=O)NCCOc3ccc(OC)cc3)cn2c1N(C)CCCc1ccccc1	-12%	-19%
COC(=O)[C@]12CCCCC=C1N(Cc1cccc3ccccc13)C(=O)[C@H](CC(=O)NCc1cccc(C(F)(F)F)c1)C2	-22%	-6%
C=CCNC(=S)N1CCC2CC1c1c(Cl)cccc12 (stereo not drawn)	33%[activator]	0%
COc1ccc(C(=O)CC(C(=O)O)c2ccc3c(c2)OCO3)cc1OC (stereo not drawn)	0%	-5%
CC(C)CN1C(=O)C(=O)N(CC(=O)NCCCc2ccccc2)C1=O	-16%	3%
OCCCn1c(C2CCCN2c2nc(-c3ccc(F)cc3)cs2)nc2cc(C(F)(F)F)ccc21 (stereo not drawn)	-12%	-7%
CCC(c1nnnn1-c1ccc2c(c1)OCCO2)N1CCC(n2c(=O)[nH]c3ccccc32)CC1 (stereo not drawn)	u	7%
CC(=O)Nc1cc(-c2ccc(N3CCN(C)CC3)cc2)cn2c(-c3ccc(F)cc3)cnc12	-10%	-18%[18.4 µM]
COc1cccc2c1OC1(N3CCOCC3)CCCCC1C2C[N+](=O)[O-] (stereo not drawn)	-17%	-17%
CSCCC(c1nnnn1Cc1ccccc1)N1CCN(C/C=C/c2ccccc2)CC1 (stereo not drawn)	-20%	-9%
COC/C=C/C1=CC2=CC(=O)C(C)(OC(=O)c3cnc4ccccc4n3)C(=O)C2=CN1CCOC (stereo not drawn)	-15%	-13%
CC1(C(=O)Nc2ccc3c(c2)OCCO3)CN(S(C)(=O)=O)CC(=O)N1CCc1ccc(O)cc1 (stereo not drawn)	-12%	-3%
CSc1nc(N)c(C(=O)N(c2ccccc2)c2ccccc2)s1	-20%	2%
CN(Cc1ccccc1)C(=O)c1ccc(NC(=O)Cc2ccc(NC(=O)C3CCCN(C(=O)C4CC4)C3)cc2)cc1 (stereo not drawn)	-15%	-6%
CCN(CC)C(=O)c1cccc(-c2csc(C(O)(c3ccccc3)C(F)(F)F)n2)c1 (stereo not drawn)	u	24%
O=C(Cc1ccc(NC(=O)C2CCN(C(=O)C3CCCCC3)CC2)cc1)Nc1ccc(C(=O)N2CCOCC2)cc1	-11%	-4%
CCc1nc2ccc(C(=O)Nc3ccc(OC)c(OC)c3)cn2c1N(CCC(C)C)CCN(C)C	-6%	-15%
CC(=O)Oc1ccc(Cn2c(C)c(C(=O)NC3CC3)sc2=O)cc1	-19%	-4%[18.4 µM]
c1cc(-c2ccc3[nH]ccc3c2)n2ccnc2c1	10%	-6%
C=C1CC2C(=O)N(Cc3ccccc3)C(C(=O)OCC)(C(=O)OCC)C1N2C(=O)OC(C)(C)C (stereo not drawn)	-6%	-15%

Another view of some results above.
canonical_smiles,StopGo reporter,RE007 growth inh
CCc1nc2ccc(C(=O)Nc3ccc(OC)c(OC)c3)cn2c1N(CCC(C)C)CCN(C)C,-6%,-15%
CC(=O)Oc1ccc(Cn2c(C)c(C(=O)NC3CC3)sc2=O)cc1,-19%,-4%[18.4 µM]

Next part:
SMILES	StopGo reporter	RE007 growth inh
O=C(c1cc2c(c(-c3cccc(-c4ccncc4)c3)n1)[C@H](CCO)N(C(=O)c1ccc3c(c1)OCO3)C2)N1CCOCC1	-24%	-1%
CCc1nc2c(OCc3ccccc3OC)cccn2c1N(C)C(=O)C(C)C	-18%	-11%
CN1C[C@@H]2[C@@H]3C(=O)N(C)C(=O)[C@@H]3[C@](C)(C1=O)N2C(=O)c1ccc(Br)cc1	-12%	-7%
N#Cc1cc(NC(=O)c2ccc(Cl)cc2)ccc1Sc1ccccc1	-11%	40%
CN(C)CCN1CCN([C@H]2CS(=O)(=O)N[C@@H]2COCc2ccccc2)CC1	0%	6%
CC(C)(C)[C@H]1C=C(C(=O)O)O[C@@H](OCc2ccc(CO)cc2)C1	-10%	6%
Cc1cc(C(=O)Nc2cccc3ccccc23)oc1C	35%[activator]	-12%
CC(Nc1nc(-c2ccc(F)cc2)cs1)c1nc2cc(C(F)(F)F)ccc2n1CCOCCO (stereo not drawn)	-9%	3%
CC(=O)Nc1cccc(-c2ccnc3c2CC(C(=O)Nc2cccc(N(C)C)c2)O3)c1 (stereo not drawn)	-3%	-21%
COc1ccc(Cc2c(C3CCCCC3)nc3c(Cl)cc(C(F)(F)F)cn23)c(C)c1	-4%	-19%
CC(O)(c1ccc(F)c(F)c1)c1nc(-c2ccoc2)cs1 (stereo not drawn)	-13%	-5%
Cc1ccc2c(=O)n3c(nc2c1)C(Cc1ccc(O)cc1)NC(=O)c1cccnc1-3 (stereo not drawn)	-22%	-9%
O=S1(=O)CC(N2CCN(c3ncccn3)CC2)CN1Cc1ccc(F)cc1 (stereo not drawn)	-7%	-16%
Cc1cccc(C)c1NC(=O)CN1CCN(C(=O)c2cc(C3CC3)nn2-c2ccccc2)CC1	0%	-3%
CC(C)CC(N)c1csc(Nc2ccc(C(=O)NCCO)cc2)n1 (stereo not drawn)	0%	-3%
COc1cccc(C(=O)O)c1OS(=O)(=O)c1ccc(C)cc1	-16%	-16%
O=C(NCC1CCCO1)C(=O)N/N=C/c1ccc(OCc2ccccc2Cl)cc1 (stereo not drawn)	-19%	1%
CN1CCN(C(=O)c2cc3c(c(-c4cccc(C#CC(C)(C)O)c4)n2)[C@H](CCO)N(S(=O)C(C)(C)C)C3)CC1 (stereo partly drawn)	u	-1%
CN(CCO)C(=O)c1nc[nH]c1C(=O)N(C)Cc1ccccc1	-1%	6%
CC1(C)CC(=O)C=C(c2ccc(-c3ccccc3)cc2)C1=O	36%[activator]	-18%
CCC(=O)N1CCCC1(C)C(=O)NCc1ccc(SC)cc1 (stereo not drawn)	0%	5%[18.4 µM]
CCCNC(=O)C1(C)CCCN(Cc2c(F)cccc2F)C1 (stereo not drawn)	-6%	4%[18.4 µM]
COc1ccccc1-c1nnc(NC(=O)C2CCCN2S(=O)(=O)c2cccs2)o1 (stereo not drawn)	-8%	7%
O=C(CC[C@H]1O[C@@H](n2ccc(=O)[nH]c2=O)[C@H](O)[C@@H]1O)NCc1ccc2c(c1)OCO2	-8%	4%
COc1cccc(C(=Cc2ccc([N+](=O)[O-])cc2)C(=O)O)c1	-2%	-11%
COc1ccccc1Cc1c(-c2ccc(F)cc2)nc2ccc(Cl)cn12	39%[activator]	-2%
CN(C)c1ccc(C=Cc2ccnc3ccccc23)cc1N	-3%	u
CCOC(=O)[C@]12CCCC=C1N(CCc1ccc(OC)c(OC)c1)C(=O)[C@H](CC(=O)N1CCCCC1)C2	3%	0%
O=C(NCCN1CCC(n2c(=O)[nH]c3ccccc32)CC1)c1ccc(F)cc1F	-16%	0%
CC(C)NC(=O)C1Cc2c(-c3ccccc3Oc3ccccc3)ccnc2O1 (stereo not drawn)	-13%	6%

Laid out differently: 2 of the compounds above.
Molecule,StopGo reporter,RE007 growth inh
O=C(c1cc2c(c(-c3cccc(-c4ccncc4)c3)n1)[C@H](CCO)N(C(=O)c1ccc3c(c1)OCO3)C2)N1CCOCC1,-24%,-1%
O=C(CC[C@H]1O[C@@H](n2ccc(=O)[nH]c2=O)[C@H](O)[C@@H]1O)NCc1ccc2c(c1)OCO2,-8%,4%

Following part:
SMILES	StopGo reporter	RE007 growth inh
CCCS(=O)(=O)NC(=O)C1(C)CCN(C(=O)c2ccc(F)cc2Cl)C1 (stereo not drawn)	0%	-6%
O=C(NC(c1ccc(Cl)cc1)c1cnccn1)C1CCN(CCCOc2ccccc2)CC1 (stereo not drawn)	-22%	-28%
COc1ccc(C(O)c2ncc(-c3ccccc3)[nH]2)cc1F (stereo not drawn)	38%[activator]	-11%
Cc1ccccc1-c1nc(NC(C)C)nc2cc(-c3ccccc3)sc12	-21%	-5%
Cc1noc(NS(=O)(=O)c2ccc(NC(=O)c3cccc(S(=O)(=O)N(C)c4ccccc4)c3)cc2)c1C	-18%	-5%
O=C1CCCCC1C1(O)C(=O)Nc2ccccc21 (stereo not drawn)	-3%	-14%
Cc1cc2nc(-c3ccccc3)c(Cc3ccsc3)n2c(C)c1Br	-8%	5%
Cc1ccc(S(=O)(=O)N2[C@H](CC(=O)c3ccc(F)cc3)OC[C@@H]2C)cc1	-25%	11%
OC(c1ccc(F)c(F)c1)c1nc(-c2cc(F)cc(F)c2)cs1 (stereo not drawn)	8%	u
O=C(Nc1ccc(F)c(Cl)c1)C1Cc2c(-c3ccco3)ccnc2O1 (stereo not drawn)	u	25%[18.4 µM]
COc1ccc(C2=NN(C(=O)c3ccco3)C(c3cccs3)C2)cc1OC (stereo not drawn)	8%	-18%
COc1ccccc1N1CCN(C(=O)CN(C)S(=O)(=O)c2ccc(C)cc2)CC1	u	-18%
Cn1c(=O)c2cc(NC(=O)CCc3ccccc3)ccc2n1Cc1cccc(C(F)(F)F)c1	-12%	16%[18.4 µM]
CCCS(=O)(=O)NC(=O)C1(C)CCN1C(=O)Cc1ccc(Cl)cc1Cl (stereo not drawn)	-14%	3%[18.4 µM]
COc1ccc(Nc2nc(NC(C)C)nc3ccsc23)cc1OC	u	-21%
COc1ccc(S(=O)(=O)N(C)[C@H]2C[C@H]3c4cc(N5CCN(C)CC5)ccc4CCN3C(=O)[C@H]2[C@H](C)O)cc1	-10%	13%
CN(C(=O)c1ccc(NC(=O)Cc2ccc(NC(=O)C3CCCN(S(=O)(=O)c4cccc([N+](=O)[O-])c4)C3)cc2)cc1)C1CCCC1 (stereo not drawn)	-19%	0%
Cc1ccccc1-c1ccc2c(c1)O[C@H](CN(C)C(=O)C1CC1)[C@@H](C)CN([C@@H](C)CO)S2(=O)=O	-19%	19%
O=S1(=O)CC(N2CCN(CCO)CC2)CN1Cc1cn(Cc2ccc(Cl)cc2)nn1 (stereo not drawn)	0%	-14%

Bioassay records from PubChem BioAssay.

Not all compounds are listed, so the mix of outcomes need not match the whole.
